StopGo reporter: FMDV 2A StopGo reporter, luciferase signal; human cells with a luciferase reporter of 2A StopGo recoding; control for the full effect not named in the record; AID 1159524; Potency, µM (titrated, usually from 57.9 µM), for the others: at the highest dose signal change, negative = less light; actives 1.2% (n = 410,000); active = well fitted falling curve with a large enough effect; inconclusive = small, poorly fitted or top-dose-only effect; inactive = no such curve, though single readings can be large or run the other way; tested in HEK293T cells; further: on the % scale 0 is the no-effect control and ±100 the full control effect; nearly all actives have a fitted effect of over 45% in size; luciferase light after 4 h
NS1 function inh: inhibitors of influenza NS1 protein function. S. cerevisiae slowed by influenza A NS1, growth recovery by OD600. actives 0.4% (n = 270,000). Potency, µM (titrated, usually from 46.1 µM), for inactives: at the highest dose activity, positive = more growth; active means well fitted rising curve with a large enough effect; inconclusive means small, poorly fitted or top-dose-only effect; inactive means no such curve, though single readings can be large or run the other way; further: nearly all actives have a fitted effect of over 50% in size
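A cell-based growth assay was used: compounds that relieve NS1-induced slow growth of budding yeast raise OD600. Assay medium was yeast nitrogen base with ammonium sulphate and -URA supplement, pH 6.0, with 2% galactose.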
LASV entry inh: Lassa virus entry inhibition | Lassa virus pseudotype entry inhibition, cell reporter; control for the full effect not named in the record | Potency, µM (titrated, usually from 37.9 µM), for inactives: top-dose activity change, negative = inhibition, hits mostly inhibitors | actives 1.2% (n = 300,000); active means well fitted inhibition curve with a large enough effect; inconclusive means small, poorly fitted or top-dose-only effect, or effect the other way; inactive means flat fitted curve, though single readings scatter; tested in HEK293 cells; further: on the % scale 0 is the no-effect control and ±100 the full control effect; nearly all actives have a fitted effect of over 50% in size; luciferase read-out
SARS PLpro yeast: SARS-CoV PLP inhibition in yeast | S. cerevisiae expressing SARS-CoV PLpro, growth rescue; control for the full effect not named in the record | Potency, µM (titrated, usually from 32.9 µM), inactives show top-dose activity, positive = growth rescue | actives 0.19% (n = 330,000) | AID 485353; active means well fitted rising curve with a large enough effect; inconclusive means small, poorly fitted or top-dose-only effect; inactive means no such curve, though single readings can be large or run the other way; further: 0% is about no effect; nearly all actives have a fitted effect of over 55% in size; growth read by luminescence after 48 h
RE007 growth inh: less growth of the S. pombe RE007 Vpr strain. S. pombe RE007 Vpr strain, BacTiter-Glo ATP luminescence, 24 h; control for the full effect not named in the record. Potency, µM (titrated, usually from 92.2 µM), inactives show top-dose activity change, negative = less growth. actives 0.21% (n = 360,000); active = well fitted falling curve with a large enough effect; inconclusive = small, poorly fitted or top-dose-only effect; inactive = no such curve, though single readings can be large or run the other way;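 further: on the % scale 0 is the no-effect control and ±100 the full control effect; nearly all actives have a fitted effect of over 50% in size; the assay follows cell death caused by Vpr and the record does not say whether a fall means rescue or toxicity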
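Fission yeast strain RE007, carrying one chromosomally integrated HIV-1 vpr copy, was seeded at OD 0.01 in PMG+AL medium with 23 nL pinned compound. After 24 h at 30 °C and 99% humidity, viability was read by BacTiter-Glo luminescence.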
Cruzain inh noDet: inhibitors of Trypanosoma cruzi cruzain without detergent; P25779; purified cruzain, Z-FR-AMC fluorescence, no detergent; Potency, µM, for the others: max response, negative = inhibition, usual class: inhibitors; actives 2.3% (n = 200,000); AID 1476;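 further: plate controls were enzyme without inhibitor for no effect and buffer without enzyme for full effect; nearly all actives have a fitted effect of over 40% in size; top concentration of the series not given in the record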
Target sequence (P25779 123-467 limits assumed): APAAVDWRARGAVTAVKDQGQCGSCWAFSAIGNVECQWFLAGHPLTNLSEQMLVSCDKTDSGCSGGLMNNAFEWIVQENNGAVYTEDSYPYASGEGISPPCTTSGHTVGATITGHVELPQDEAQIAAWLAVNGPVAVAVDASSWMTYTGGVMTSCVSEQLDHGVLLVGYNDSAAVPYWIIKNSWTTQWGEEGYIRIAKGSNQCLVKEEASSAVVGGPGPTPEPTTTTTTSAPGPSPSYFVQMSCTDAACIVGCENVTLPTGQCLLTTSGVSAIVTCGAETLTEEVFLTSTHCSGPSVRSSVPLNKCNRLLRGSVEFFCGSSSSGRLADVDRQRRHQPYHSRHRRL
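Detergent-free condition (0.00005% Triton X-100) in acetate buffer pH 5.5 with DTT. 1.5 nM enzyme and compound were pre-mixed 15 min, then 2 uM Z-FR-AMC substrate added; reaction progress from fluorescence change between first and third reads (60 s).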
Marburg entry inh: inhibitors of Marburg virus binding or cell entry; Marburg virus pseudotyped entry inhibition, cell reporter; control for the full effect not named in the record; about a third of the inactives were read at about 46 µM; Potency, µM (series often up to 37.8 µM), inactives show at the highest dose activity change, negative = inhibition, actives largely listed as inhibitors; actives 1.8% (n = 300,000); active = well fitted inhibition curve with a large enough effect; inconclusive = small, poorly fitted or top-dose-only effect, or effect the other way; inactive = flat fitted curve, though single readings scatter; tested in HEK293 cells; about a fifth of its hits are not listed in these tables; further: on the % scale 0 is the no-effect control and ±100 the full control effect; luciferase read-out
Cruzain Triton: blocks cruzain activity in presence of Triton detergent; P25779; purified cruzain, Z-FR-AMC fluorescence, 0.01% Triton; Potency, µM, without a hit: max response, negative = inhibition, usual class: inhibitors; actives 0.43% (n = 200,000); AID 1478;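 further: plate controls were neutral wells for no effect and buffer without enzyme for full effect; nearly all actives have a fitted effect of over 40% in size; top concentration of the series not given in the record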
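Detergent-containing arm of a paired screen for aggregation-based inhibition: 0.01% Triton X-100 present. Cruzain at 1.5 nM cleaved 2 uM Z-FR-AMC at pH 5.5 with 5 mM DTT; AMC fluorescence gain over 60 s measured activity.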
Active calls of the source: *; ? = inconclusive; / = not tested or not shown; [ ] = another dose, or the depositor's remark. Unless noted, the call rests on the fitted dose curve; in most records, active means well fitted curve in the direction sought with a large enough effect; inconclusive means small, poorly fitted or top-dose-only effect, or another doubt; inactive means no such curve, though single readings can be large; an effect the other way counts as inactive or inconclusive. Potency means the concentration at half of the fitted maximal effect. The order is random; overall some 4.8% were active at least once.

Molecule	StopGo reporter	NS1 function inh	LASV entry inh	SARS PLpro yeast	RE007 growth inh	Cruzain inh noDet	Marburg entry inh	Cruzain Triton
CCOC(=O)Nc1cc2c(C)cc(=O)oc2cc1C	-28%	-8%	3%	-4%	-16%	6%	-1%	0.4%
O=P(c1ccccc1)(c1ccccc1)C(c1ccco1)N1CCOCC1 (stereo not given)	14%	-1%	21%	-3%	18%	16%	?	3.4%
O=C(Cn1nnc(-c2ccc3c(c2)OCO3)n1)N1CCOCC1	2%	-1%	26%	/	19%	10%	?	3.2%
COc1ccccc1N1CCN(S(=O)(=O)c2ccccc2F)CC1	-9%	-34%	-7%	-8%	7%	0%	5%	-5.1%
CCOC(=O)C(C)NC(=O)c1c(C)oc2ncn(CC(C)C)c(=O)c12 (stereo not given)	6%	/	23%[46.1 µM]	/	/	-5%	/	-0.4%
CN(CCNC(=O)CN1CCN(Cc2ccccc2Cl)C1=O)Cc1ccccc1	-18%	-1%	4%	5%	3%	-13%	?	0.2%
O=C1CCCC(=O)N1c1ccc(Oc2ccc(Cl)cc2)cc1	-5%	2%	1%	-13%	21%	-1%	9%	-4.2%
O=C(O)c1nc(NCc2ccccc2)ncc1Cl	-16%	?	/	4%	11%	/	/	/
CCC(Sc1nc2nccnc2c(=O)n1Cc1ccc(C)cc1)C(=O)NC1CCCCC1 (stereo not given)	3%	/	-10%[46.1 µM]	/	/	7%	/	-0.1%
COc1ccccc1C(=O)NC(=O)COC(=O)c1ccc(Br)o1	-10%	/	-16%	-1%	-22%	/	-28%	/

5 neighbouring records from above, for reference:
Molecule	StopGo reporter	NS1 function inh	LASV entry inh	SARS PLpro yeast	RE007 growth inh	Cruzain inh noDet	Marburg entry inh	Cruzain Triton
COc1ccccc1N1CCN(S(=O)(=O)c2ccccc2F)CC1	-9%	-34%	-7%	-8%	7%	0%	5%	-5.1%
CCOC(=O)C(C)NC(=O)c1c(C)oc2ncn(CC(C)C)c(=O)c12 (stereo not given)	6%	/	23%[46.1 µM]	/	/	-5%	/	-0.4%
CN(CCNC(=O)CN1CCN(Cc2ccccc2Cl)C1=O)Cc1ccccc1	-18%	-1%	4%	5%	3%	-13%	?	0.2%
O=C1CCCC(=O)N1c1ccc(Oc2ccc(Cl)cc2)cc1	-5%	2%	1%	-13%	21%	-1%	9%	-4.2%
O=C(O)c1nc(NCc2ccccc2)ncc1Cl	-16%	?	/	4%	11%	/	/	/

Next section.
Molecule	StopGo reporter	NS1 function inh	LASV entry inh	SARS PLpro yeast	RE007 growth inh	Cruzain inh noDet	Marburg entry inh	Cruzain Triton
O=C(Nc1cccc(-c2nc3ccccc3o2)c1)c1cccc2c(Cl)cccc12	-8%	/	-15%[46.1 µM]	/	/	1%	8%[46.1 µM]	-0.8%
CCOC(=O)C1CCN(C(=O)c2cc3c(-c4ccc(OC)c(OC)c4)nn(C)c3s2)CC1	?	-92%	/	-7%	2%	?	1%	-13%
CN(C)CCCN(C(=O)c1ccc2c(c1)CCCC2)c1nc2c(F)cccc2s1	-7%	3%	?	27%	10%	-3%	-18%	-11%
Cc1[nH]n2c(=O)cc(C(C)C)nc2c1-c1ccccc1	0%	-13%	-11%	-2%	14%	-5%	?	3.3%
CCOC(=O)N1CCC(NC(=O)c2c(C)nn(-c3cccc(C)c3)c2-n2cccc2)CC1	-26%	/	?	/	/	?	/	-2.2%
COc1ccc(CNCCC(c2ccc(OC(C)C)cc2)c2ccccc2OC)cc1 (stereo not given)	-30%	0%	/	-1%	22%	/	/	/
COc1ccc(-c2cc3ccccc3[nH]2)cc1	38%[activator]	-2%	13%	0%	7%	/	11%[46.1 µM]	/
Cc1oc2c(C)c3oc(=O)c(CCC(=O)NCCCCCC(=O)O)c(C)c3cc2c1C	-11%	13%	/	0%	-6%	/	/	/
O=C(NC1CCN(S(=O)(=O)c2ccccc2C(F)(F)F)CC1)c1ccco1	39%[activator]	5%	15%[46.1 µM]	1%	9%	/	2%[46.1 µM]	/
NC1=NC(=O)/C(=C/c2ccccc2OS(=O)(=O)c2ccc3ccccc3c2)S1	1%	8%	-2%	-15%	52%	?	6%	1.5%

Next part.
Molecule	StopGo reporter	NS1 function inh	LASV entry inh	SARS PLpro yeast	RE007 growth inh	Cruzain inh noDet	Marburg entry inh	Cruzain Triton
Cc1ccccc1CCNC(=O)CCn1ccc2cc(S(=O)(=O)N3CCCC3)ccc21	-8%	7%	?	4%	-10%	/	?	/
CC(C)C[C@@H](CO)N1CCN(Cc2cccnc2)CCC1=O	-3%	-13%	/	1%	-5%	/	/	/
COc1ccc(N/C(N)=N/c2nc(C)cc(=O)[nH]2)cc1	9%	12%	2%	3%	0%	/	0%	/
O=c1c(Cc2ccc(Cl)cc2Cl)c(O)ccn1CC(F)(F)F	-10%	-37%	/	-11%	7%	/	/	/
CCn1c(SCC(=O)Nc2nccs2)nnc1-c1ccco1	6%	0%	-12%	0%	8%	/	-10%[46.1 µM]	/
Cc1ccccc1OCCCN1CCCC1	-13%	9%	-5%	-4%	-6%	6%	26%	4.0%
CC(NC(=O)c1cn(C)c2ccc(S(=O)(=O)N3CCCC3)cc2c1=O)c1ccccc1 (stereo not given)	0%	18%	/	-1%	-8%	/	/	/
CCNC(=O)CSc1nc2ccccc2c(=O)n1OC	-10%	-1%	3%	7%	2%	-14%	-2%	1.2%
Cc1ccc(CN2CCN(C(=O)c3ccncc3)CC2)cc1	-7%	4%	/	-1%	-21%	/	/	/
CC(=O)NC1(C(F)(F)F)C(=O)Nc2c1c(=O)n(C)c(=O)n2C (stereo not given)	4%	3%	14%	1%	6%	10%	?	-0.1%

The closing 2 compounds of the part above open the next one.
Molecule	StopGo reporter	NS1 function inh	LASV entry inh	SARS PLpro yeast	RE007 growth inh	Cruzain inh noDet	Marburg entry inh	Cruzain Triton
Cc1ccc(CN2CCN(C(=O)c3ccncc3)CC2)cc1	-7%	4%	/	-1%	-21%	/	/	/
CC(=O)NC1(C(F)(F)F)C(=O)Nc2c1c(=O)n(C)c(=O)n2C (stereo not given)	4%	3%	14%	1%	6%	10%	?	-0.1%
CC(=O)c1ccc(N2CCN(C(=O)C3CCN(S(=O)(=O)c4c(C)noc4/C=C/c4ccc(C)cc4)CC3)CC2)cc1	-23%	/	-1%[46.1 µM]	/	/	-2%	/	-1.2%
Cc1cccc(C)c1NC(=O)CNC(=O)c1ccccc1OCc1ccccc1	-8%	/	-5%	-1%	5%	/	2%	/
CCC(=O)Nc1c2c(nn1-c1ccc(F)cc1)CS(=O)C2 (stereo not given)	?	2%	/	-7%	2%	2%	/	3.5%
O=C(CCS(=O)(=O)c1ccc2c(c1)NC(=O)CO2)NCc1ccccc1	-18%	-5%	/	10%	-6%	/	/	/
CCCC(CCC(=O)Nc1ccn(-c2ccccc2)n1)C(=O)O (stereo not given)	0%	7%	11%	0%	-5%	/	3%	/
CCOC(=O)N1CCN(C(=O)c2ccc3c(=O)n(Cc4ccccc4OC)c(=S)[nH]c3c2)CC1	-3%	10%	-1%	5%	4%	?	20%	-2.8%
COc1ccc(-c2nc(-c3ccc(Br)o3)no2)cc1OC	26%	-71%	/	-8%	0%	?	/	-1.8%
Cc1ccnc2ccc(SC(F)(F)F)cc12	-5%	/	-13%[46.1 µM]	3%	-7%	/	6%[46.1 µM]	/
Cc1c(C(=O)N/N=C/c2ccccn2)nnn1-c1nonc1N	23%	1%	-11%	1%	-7%	/	3%[46.1 µM]	/
CN1CCN(C(=O)c2ccc3c(c2)N(Cc2ccccc2)CCS3)CC1	-5%	-8%	/	5%	-15%	/	/	/

3 of the compounds above, with values under each structure.
Order of results – StopGo reporter, NS1 function inh, LASV entry inh, SARS PLpro yeast, RE007 growth inh, Cruzain inh noDet, Marburg entry inh, Cruzain Triton
CCOC(=O)N1CCN(C(=O)c2ccc3c(=O)n(Cc4ccccc4OC)c(=S)[nH]c3c2)CC1
 : -3%, 10%, -1%, 5%, 4%, ?, 20%, -2.8%
CN1CCN(C(=O)c2ccc3c(c2)N(Cc2ccccc2)CCS3)CC1
 : -5%, -8%, /, 5%, -15%, /, /, /
O=C(CCS(=O)(=O)c1ccc2c(c1)NC(=O)CO2)NCc1ccccc1
 : -18%, -5%, /, 10%, -6%, /, /, /

Next part
Molecule	StopGo reporter	NS1 function inh	LASV entry inh	SARS PLpro yeast	RE007 growth inh	Cruzain inh noDet	Marburg entry inh	Cruzain Triton
Cc1cc(=O)[nH]c2c(C)c(N)ccc12	-5%	2%	-3%	-7%	-13%	23%	13%	-14%
CC(=O)c1ccc(OCc2cc(C(=O)N(C)C(C)c3nccs3)no2)cc1 (stereo not given)	-3%	-19%	/	-19%	2%	/	/	/
CN1CCN(S(=O)(=O)c2ccc([N+](=O)[O-])cc2)CC1	-15%	13%	/	6%	2%	/	/	/
O=S(=O)(Nc1nc2ccccc2nc1Nc1ccc(N2CCOCC2)cc1)c1cc(Cl)ccc1Cl	-21%	-3%	?	11%	15%	20µM*	7.3µM*	-9.0%
COc1ccccc1CNC(=O)c1cccc(NC(=O)N2CCSc3ncccc32)c1	0%	/	-1%[46.1 µM]	/	/	-12%	/	-14%
O=C(COc1cc(Cl)c(Cl)cc1Cl)Nc1ccc([N+](=O)[O-])cc1Cl	8%	3%	/	1%	5%	/	/	/
Cc1ccc(CN2CCC(CNC(=O)Nc3ccc(Cl)cc3)C2)cc1 (stereo not given)	-18%	/	-12%[46.1 µM]	/	/	-12%	?	-8.0%
O=C(COc1ccc(Cl)cc1)N1CCCC1	21%	7%	5%	-11%	-4%	-15%	18%	-3.1%
Cc1ccc(Cl)c2sc(N3CCN(C(=O)c4ccco4)CC3)nc12	?	/	?	-17%	-2%	/	-25%	/
O=S(=O)(Nc1ccccc1-c1ccccc1)c1ccccc1	3%	/	-4%[46.1 µM]	/	-9%	/	?	/
COc1ccc(-c2cc(C(F)F)n3ncc(C(=O)Nc4cc(OC)ccc4OC)c3n2)cc1	0%	/	3%[46.1 µM]	/	/	-3%	-1%[46.1 µM]	-3.6%
COc1ccc(Br)cc1CNC(=O)C1COc2ccccc2C1 (stereo not given)	0%	/	?	/	/	-7%	/	-5.3%
